Sa ugtP lethal – kills S. aureus RN4220 lacking UgtP; growth inhibition, % (no concentration beside the values); AID 1259309; S. aureus RN4220 ugtP deletion, OD600 growth, 16 h; some inactives read as strong as hits; 0.54% of 330,000 active;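 active = z-score under -3 and OD600 up to 0.15 on both plates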;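 note: plate controls were untreated wells for no effect and antibiotic for full effect; wells of about 80 µL received 100 nL stock; the first replicate is given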
BJeLR viability – BJeLR cell viability loss. 0.17% of 300,000 active. BJeLR (HRASV12) viability, CellTiter-Glo ATP luminescence, 48 h; reference of the scale not given here. inhibition, % (test concentration not listed). AID 1554;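 active = replicate mean above 50%; inconclusive = above 50% but judged a plate artefact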;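 note: 50 nL library stock added to about 25 µL; numbers are from one replicate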
PrP 5UTR inh – suppresses PrP 5' UTR mRNA reporter expression | cell-based PrP 5' UTR mRNA reporter, plate reader | inhibition, % (no concentration beside the values) | 0.35% of 340,000 active;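 active = every replicate at 50% or more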;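 note: 0 = median of the neutral control wells; tested in H4 reporter cells; numbers are from one replicate; inactives centre near -14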
Sa RN4220 lethal – S. aureus RN4220 growth inhibition | OD600, 16 h | inhibition, % (concentration not given with the values) | 0.33% of 330,000 active | AID 1259311;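 active = z-score of -3 or lower and OD600 up to 0.18 on both plates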;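 note: plate controls were untreated cells for no effect and reference antibiotic for full effect; stock transfer was 100 nL into about 80 µL; one replicate is shown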
Mtb hypoxia rep – inhibitors of hypoxia-regulated fluorescent reporter in Mycobacterium tuberculosis. M. tuberculosis hypoxia-regulated fluorescent reporter, fluorescence. fluorescence inhibition, % (concentration not given with the values). 0.1% of 300,000 active;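 active = 35 to 45% if threefold the growth effect, above 45% if 1.5-fold the growth effect; inactive = the rest, general growth blockers included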;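 note: wells of about 50 µL received 100 nL stock; 0% = vehicle wells and 100% = reference inhibitor wells; whole bacteria with a GFP reporter of the hypoxia response; strong numbers were not always called active; many hits fall short of the cut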
Bead autofluor – flagged as autofluorescent in microsphere protease counterscreen | compound autofluorescence counterscreen, microsphere flow cytometry; stronger effect = higher value | fluorescence intensity (no concentration beside the values) | 3.1% of 360,000 active | AID 624483;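 active = at least 3 SD above the mean of all compounds, about 16000 in these data; inconclusive = too few beads counted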;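 note: 100 nL of 1 mM stock went into each well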
Mtb hypoxia rep growth – also measured in Mtb hypoxia rep; calls as there; growth inhibition, %; measured here: M. tuberculosis growth (absorbance);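 0% = vehicle and 100% = reference antibiotic; read after six days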
An asterisk follows results filed as active; ? = inconclusive; . = no result given.

SMILES	Sa ugtP lethal	BJeLR viability	PrP 5UTR inh	Sa RN4220 lethal	Mtb hypoxia rep	Mtb hypoxia rep growth	Bead autofluor
N#Cc1c(C(F)(F)F)cc(-c2cccs2)nc1N1CCCCC1	24	-11	-12	1.9	17	-8	6004
Cc1ccc(CNC(=O)CCCCn2c(=O)[nH]c3ccsc3c2=O)cc1	7	11	-5	2.5	1	-5	3548
O=C(C(Cc1ccccc1)n1cccc1)N1CCCCC1 (stereo unspecified)	6	0	-12	4.3	10	5	4769
Cc1ccc(/C(N)=N/OC(=O)Oc2ccccc2)cc1	1	14	-2	3.2	.	.	5043
Nc1nc2ccc(S(=O)(=O)N3CCCCC3)cc2s1	3	2	-18	0.1	7	7	5500
COc1ccc(OC)c(CN2CCN(c3ccc(S(=O)(=O)N4CCCC4)cn3)CC2)c1	4	.	9	1.2	-7	-4	2881
CCCCSc1nc(CCC)cc(=O)[nH]1	-3	1	-33	4.0	8	5	7941
CCOC(=O)C(NC(=O)CC(C)C)(Nc1sc2c(c1C(N)=O)CCCC2)C(F)(F)F (stereo unspecified)	-2	3	-18	-4.4	-7	-5	2374
CC1CCN(c2ccc([N+](=O)[O-])cc2C(=O)NCC2CCCO2)CC1 (stereo unspecified)	5	5	-5	0.1	5	-2	4361
COc1cccc(C2C(C(=O)OC(C)C)=C(C)N=c3s/c(=C\c4ccc(C(=O)O)cc4)c(=O)n32)c1 (stereo unspecified)	.	2	-11	.	.	.	3153
Cn1c(N)c(C(=O)COC(=O)C2CCCN2S(=O)(=O)c2ccc(Cl)cc2)c(=O)n(C)c1=O (stereo unspecified)	-6	.	.	0.4	-13	4	.
Cc1nc2ncnn2c(C)c1CCC(=O)N1CCc2ccccc21	-1	14	5	0.2	-10	-4	10339
CC(C)(CNC(=O)Cc1ccc(Br)cc1)N1CCOCC1	11	-9	-8	8.4	12	-1	3240
COCCCNC(=O)Cc1coc2ccc3ccccc3c12	3	-11	3	-4.8	0	8	4885
COC(=O)CSCc1nc2ccccc2[nH]c1=O	10	-8	6	3.6	-3	0	4387

The list goes on (two carried over from the part before).
SMILES	Sa ugtP lethal	BJeLR viability	PrP 5UTR inh	Sa RN4220 lethal	Mtb hypoxia rep	Mtb hypoxia rep growth	Bead autofluor
COCCCNC(=O)Cc1coc2ccc3ccccc3c12	3	-11	3	-4.8	0	8	4885
COC(=O)CSCc1nc2ccccc2[nH]c1=O	10	-8	6	3.6	-3	0	4387
Cc1ccc(S(=O)(=O)CC(O)COc2ccc(F)cc2Cl)cc1 (stereo unspecified)	6	-2	-14	9.1	9	2	3304
NC(=O)c1c(NC(=O)c2cccnc2)sc2c1CCCCC2	2	-7	-54	4.0	4	12	3977
CC(=O)OC[C@]12CCC(C)=C[C@H]1O[C@@H]1[C@H](O)[C@@H](OC(C)=O)[C@@]2(C)[C@]12CO2	-29	.	90*	-2.0	.	.	5294
O=C(O)c1cccc(S(=O)(=O)Nc2ccc(Cc3ccncc3)cc2)c1	4	.	1	1.7	-1	7	3628
O=C(O)CSC(C(=O)Nc1ccc(Br)cc1)c1ccc(Cl)cc1 (stereo unspecified)	-4	7	-14	1.9	10	12	2547
COc1ccc(C(=O)c2sc3nc(-c4ccc(OC)cc4)ccc3c2N)cc1	0	-2	1	0.7	10	-2	2833
CN(CC(=O)Nc1ccc(Cl)cc1)S(=O)(=O)c1ccc2c(c1)n(C)c(=O)c(=O)n2C	2	4	-7	2.2	-3	-2	5652
c1ccc(CCc2nc(-c3cccnc3)no2)cc1	2	17	-37	0.4	.	.	4613
Cc1cccc2sc(N(CCCN(C)C)C(=O)CN3C(=O)c4ccccc4C3=O)nc12	-9	1	7	-1.9	-8	-2	.
Cc1cc(S(=O)(=O)Nc2ccccc2C(=O)O)ccc1Cl	23	-3	-63	5.9	9	-1	10094
CCN(CC)CCNC(=O)c1ccccc1C(=O)c1ncc[nH]1	-20	6	-9	-1.7	.	.	6305
Cc1ccc(C(C)C)c(OCc2ccc(C(=O)N/N=C/c3cccc(O)c3O)cc2)c1	.	74*	62*	.	.	.	2048
COc1cccc(NC(=S)NC2CC3CCCC(C2)N3C2CCCC2)c1 (stereo unspecified)	3	4	8	0.3	14	0	4954
O=C(Cc1ccccc1)NNC(=S)Nc1ccccc1	0	1	-19	3.6	-6	6	4914
Cc1ccc(NC(=S)NNS(=O)(=O)c2ccc3ccccc3c2)cc1Cl	11	-3	-82	23	1	6	2580
O=C(N/N=C/C(Cl)=C/c1ccccc1)c1ccncc1	.	-1	-32	.	.	.	4007
COc1cccc(-c2nc3c(c(=O)[nH]c(=O)n3Cc3ccccc3)n2CCO)c1OC(F)F	4	4	-2	7.0	2	1	4352
NC(=O)C1CCN(C(c2ccccc2F)c2nnnn2Cc2ccco2)CC1 (stereo unspecified)	4	2	-13	-1.0	.	.	3443
N#CCCn1cc(C(=O)Nc2ccc(C(=O)O)cc2)c(-c2cc3ccccc3o2)n1	7	-15	-33	3.4	5	10	4262
CC(C)c1ccc(O)c(NC(=O)c2cncc(Br)c2)c1	-6	-3	-30	2.2	15	9	?
CN(C)C(=O)CCc1ccc2c3c([nH]c2c1)[C@]1(CCC2CCCC2)[C@@H](C(=O)N2CCOCC2)C[C@H](CC(=O)NCCC2=CCCCC2)C(=O)N1CC3	2	.	11	-2.6	-5	8	3425
O=C(Nc1ccccc1)c1cccc2c(Br)cccc12	0	-5	-28	3.0	11	1	3525
O=C(O)[C@H](Cc1ccccc1)N1Cc2ccccc2C1=O	-1	5	-19	-12	1	1	5671
CCOC(=O)c1c(C)c(C(=O)NCc2ccc(OC)cc2)c(C)n1C	-4	-1	-4	-0.9	8	6	2229
Cc1cccc(-n2nc(C)c3c2NC2=C(C(=O)CCC2)C3c2ccccn2)c1 (stereo unspecified)	5	3	-25	8.3	7	-3	4656
CCOC(=O)c1c(N=Cc2cc(C)ccc2O)sc2c1CCC2	3	.	.	5.7	11	6	.
COc1ccccc1S(=O)(=O)N1CCNC(=O)C1	6	.	-16	4.0	6	10	3610
O=C(CCSc1nnc(-c2ccncc2)o1)Nc1ccccc1Cl	-1	5	-8	-9.0	22	6	2459
CN1C(C(=O)NCc2cccc(C(F)(F)F)c2)CC2Cn3c(nc4cc(Cl)c(Cl)cc43)C21 (stereo unspecified)	-3	1	-35	-8.7	5	5	4777
COC(=O)C1(CO)NC(c2ccc(C)cc2)C2C(=O)N(c3ccccc3)C(=O)C21 (stereo unspecified)	4	-2	-22	2.2	5	5	3945

Some entries already given, reduced to Sa RN4220 lethal.
canonical_smiles	Sa RN4220 lethal
N#CCCn1cc(C(=O)Nc2ccc(C(=O)O)cc2)c(-c2cc3ccccc3o2)n1	3.4
CC(C)c1ccc(O)c(NC(=O)c2cncc(Br)c2)c1	2.2
CN(C)C(=O)CCc1ccc2c3c([nH]c2c1)[C@]1(CCC2CCCC2)[C@@H](C(=O)N2CCOCC2)C[C@H](CC(=O)NCCC2=CCCCC2)C(=O)N1CC3	-2.6
O=C(Nc1ccccc1)c1cccc2c(Br)cccc12	3.0
O=C(O)[C@H](Cc1ccccc1)N1Cc2ccccc2C1=O	-12
CCOC(=O)c1c(C)c(C(=O)NCc2ccc(OC)cc2)c(C)n1C	-0.9

Going on with the list:
SMILES	Sa ugtP lethal	BJeLR viability	PrP 5UTR inh	Sa RN4220 lethal	Mtb hypoxia rep	Mtb hypoxia rep growth	Bead autofluor
COc1ccc(CN(C)Cc2ccccc2)c(OC)c1OC	-1	0	-3	-2.4	3	-7	2115
COc1ccc(/C(=N/O)C(C)(C)NO)cc1	.	-1	-10	.	.	.	2358
CCOC(=O)C1=C(C)C/C(=N\NC(=O)c2ccccc2O)CC1	.	0	-25	.	.	.	4302
COC(=O)Cn1nc(-c2ccccc2)c2ccccc21	-2	-4	.	7.4	6	4	11394
CCN1CCN(c2ccc(S(=O)(=O)N3CCOCC3)cc2NC(=O)c2cc(Cl)nc3ccccc23)CC1	3	-1	-16	2.6	1	-1	5582
CCOC(=O)c1sc(NC(=O)c2cc3ccccc3o2)nc1C	12	-14	-42	3.3	-7	8	4428
CCCC(C)c1nnc(NC(=O)CN2C(=O)c3ccccc3C2=O)s1 (stereo unspecified)	7	1	19	2.1	10	-1	4278
S=c1[nH]nc(-c2ccncc2)n1N=Cc1cccc(Cl)c1	-4	.	.	13	-2	4	.
Cc1cc2nc3n(c2cc1C)CC1CC(C(=O)NCCC(C)C)N(C)C31 (stereo unspecified)	-3	-2	-8	3.6	10	3	2975
Nc1cccnc1Sc1cccc(Cl)c1	-5	0	-8	-0.6	-6	-1	4187
O=C(CC1C(=O)NCCN1Cc1cccc(F)c1)NCCCN1CCCC1=O (stereo unspecified)	4	6	-15	3.3	6	-2	5319
Cc1ccc(NS(=O)(=O)c2ccc3c(c2)oc(=O)n3C)cc1F	1	11	-22	11	-3	-2	4237
CCC(C)N(C(=O)CSc1nc(C)c(C)c(C)c1C#N)C1CCS(=O)(=O)C1 (stereo unspecified)	-4	.	-3	-1.4	-5	-4	14014
CC(C)(C)c1nnc(NS(C)(=O)=O)s1	6	-7	-4	1.8	2	-7	4307
C/C=C/C=C/C(=O)OC(C)C(=O)Nc1cc([N+](=O)[O-])ccc1OC (stereo unspecified)	6	-8	-31	1.8	4	5	3988

Two entries from above, reformatted:
CCC(C)N(C(=O)CSc1nc(C)c(C)c(C)c1C#N)C1CCS(=O)(=O)C1 (stereo unspecified)
  Sa ugtP lethal = -4
  BJeLR viability = .
  PrP 5UTR inh = -3
  Sa RN4220 lethal = -1.4
  Mtb hypoxia rep = -5
  Mtb hypoxia rep growth = -4
  Bead autofluor = 14014

CC(C)(C)c1nnc(NS(C)(=O)=O)s1
  Sa ugtP lethal = 6
  BJeLR viability = -7
  PrP 5UTR inh = -4
  Sa RN4220 lethal = 1.8
  Mtb hypoxia rep = 2
  Mtb hypoxia rep growth = -7
  Bead autofluor = 4307

(listing goes on)
SMILES,Sa ugtP lethal,BJeLR viability,PrP 5UTR inh,Sa RN4220 lethal,Mtb hypoxia rep,Mtb hypoxia rep growth,Bead autofluor
CS(=O)(=O)N(CC(=O)N1CCCCCC1)c1ccc2c(c1)OCCO2,-5,0,-32,0.4,1,3,9877
Nc1ccc(-c2nnnn2-c2ccc(N)cc2)cc1,8,-8,-21,5.1,-1,7,4023
CC(=O)OCC(=O)C1(O)CCC2C3CC(C)C4=CC(=O)C=CC4(C)C3=CCC21C (stereo unspecified),-2,.,-91,5.8,7,4,4095
Cc1ccc(CNC(=O)C2=CCN(S(=O)(=O)c3ccc(C)cc3)CC2)cc1,1,0,-19,-0.7,.,.,5644
CC1CCC(C(C)C)C(OC(=O)COC(=O)c2cc(O)ccc2N)C1 (stereo unspecified),13,-20,-16,9.3,-3,-2,2220
COc1cc(/C=C/c2ccc3cccc([N+](=O)[O-])c3n2)ccc1OCC(=O)O,7,9,-1,3.7,6,-3,4336
Cc1ccc(S(=O)(=O)N2CCN(C(=O)COC(=O)c3ccccc3Cl)CC2)c(C)c1,6,.,-12,5.6,5,-2,3918
COc1ccc(C2C=CCN(Cc3ccc(N(C)C)cc3)C(C)C(=O)N2Cc2ccc(F)cc2)cc1 (stereo unspecified),2,.,.,4.4,-6,-8,.
COc1cc(C(=O)N2c3ccccc3CCC2C)cc(OC)c1OC (stereo unspecified),11,-5,-20,4.5,10,-5,4210
COc1ccc(C(=O)NCCC(C)C)cc1S(=O)(=O)N1CCOCC1,3,-4,-16,0.2,6,9,4971
Cc1oc(-c2cccs2)[n+]([O-])c1C,8,-1,-27,1.1,13,7,2535
O=C1COCC(=O)N1CCc1c[nH]c2ccccc12,0,-2,-32,1.4,4,10,3535
